CtBP-E1A inh: inhibitors of CtBP/E1A interaction | activity change, % (concentration not given with the values) | 340,000 compounds, 0.49% hits | AID 651724 | AlphaScreen GST-E1A/His-CtBP binding, 1536-well; hits give low values; control for the full effect not named in the record; in the data active means activity change below about -65%; inconclusive means about -30% to -65%; inactive means above about -30%; note: % is set by controls: 0 for no effect and ±100 for the full control effect
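Homogeneous bead-based format: GST-tagged E1A captured on glutathione donor beads, His-tagged CtBP on nickel acceptor beads; compounds precede bead addition by 2 h at 37 °C.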
TRPML1 ag: human mucolipin-1 channel agonism; TRPML1-expressing cells, Ca2+ dye fluorescence, FDSS; host cell line not named in the record; reference of the full effect not given here; activation, % (no concentration beside the values); 410,000 compounds, 0.12% hits; AID 624414; in the data active = activation above about 50%; inconclusive = about 30% to 50%; inactive = below about 30%; note: 0% is about no effect; the text of the record puts the active cut at 80%
Target sequence (Q9GZU1 whole entry, looked up): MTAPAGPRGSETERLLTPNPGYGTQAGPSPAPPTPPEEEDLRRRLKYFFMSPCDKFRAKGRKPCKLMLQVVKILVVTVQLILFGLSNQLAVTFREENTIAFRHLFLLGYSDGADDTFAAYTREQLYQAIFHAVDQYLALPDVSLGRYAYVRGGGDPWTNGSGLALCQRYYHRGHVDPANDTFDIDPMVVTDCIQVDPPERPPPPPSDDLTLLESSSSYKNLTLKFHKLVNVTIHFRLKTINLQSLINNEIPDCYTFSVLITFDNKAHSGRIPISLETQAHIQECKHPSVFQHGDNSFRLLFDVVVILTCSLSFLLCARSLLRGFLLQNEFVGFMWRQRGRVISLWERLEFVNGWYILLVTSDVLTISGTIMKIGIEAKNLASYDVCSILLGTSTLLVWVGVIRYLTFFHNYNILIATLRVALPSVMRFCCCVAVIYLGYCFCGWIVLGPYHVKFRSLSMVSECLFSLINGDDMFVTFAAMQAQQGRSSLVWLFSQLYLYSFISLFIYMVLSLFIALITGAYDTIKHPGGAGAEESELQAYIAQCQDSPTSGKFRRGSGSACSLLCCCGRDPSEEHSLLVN
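In this qHTS format, compounds were pin-transferred onto Ca8-dye-loaded TRPML1-DL cells induced with Tet overnight, and intracellular Ca2+ fluorescence was recorded kinetically for 110 s after a 10 s baseline. A subsequent 4uM final 54-4 (EC80) addition followed by a second 110 s read served as the antagonist phase.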
D2 agonist: activates the human D2 dopamine receptor | P14416 | DiscoveRx PathHunter D2 beta-arrestin, luminescence, 90 min; 100% = 57 uM dopamine signal | activation, % (concentration not given with the values) | 360,000 compounds, 0.084% hits | AID 624465; in the data active = activation above about 40%; inconclusive = about 15% to 40%; inactive = below about 15%; note: the text of the record calls up to 30% inactive
Target sequence (P14416 whole entry, looked up): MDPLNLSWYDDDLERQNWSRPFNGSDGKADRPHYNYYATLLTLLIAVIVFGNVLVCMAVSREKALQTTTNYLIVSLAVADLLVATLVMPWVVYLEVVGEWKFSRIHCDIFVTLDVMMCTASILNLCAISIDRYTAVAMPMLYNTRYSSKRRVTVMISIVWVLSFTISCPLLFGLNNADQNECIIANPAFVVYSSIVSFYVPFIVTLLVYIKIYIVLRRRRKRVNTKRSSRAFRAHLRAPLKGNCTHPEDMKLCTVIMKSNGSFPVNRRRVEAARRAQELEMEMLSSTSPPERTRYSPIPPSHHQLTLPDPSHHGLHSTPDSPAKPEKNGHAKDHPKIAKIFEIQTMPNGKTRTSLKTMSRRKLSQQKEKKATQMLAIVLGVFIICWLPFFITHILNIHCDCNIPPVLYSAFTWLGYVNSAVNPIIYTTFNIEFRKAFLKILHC
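Agonist mode: compounds alone added to overnight-plated D2 PathHunter cells for 90 min at 37 C, with 57 uM final dopamine (EC100) defining full response. Beta-arrestin recruitment detected by chemiluminescent reagent, read after 1 h at ambient temperature.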
D2 PAM: human D2 receptor positive allosteric modulation | P14416 | DiscoveRx D2 beta-arrestin cells, luminescence, 90 min; 100% = 57 uM dopamine signal | potentiation, % (no concentration beside the values) | 360,000 compounds, 0.23% hits; active = potentiation of 50% or more; inconclusive = 30% to 50%; inactive = 30% or less;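 note: compound concentration not given in the record; tested on top of an EC20 dose of dopamine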
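D2 cells co-treated with compound plus 50 nM dopamine (EC20) for 90 min at 37 deg C to detect potentiation. Beta-arrestin recruitment was read as enzyme-fragment luminescence after 1 h at ambient temperature. Full response was set by 57 uM dopamine.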
PINK1 expr mod: PINK1 expression modulation; PINK1 immunofluorescence, high-content cytometry, 24 h; Potency, µM (titrated, usually from 76.6 µM), for inactives: at the highest dose activation (PINK1 increase), usual class: activators; 410,000 compounds, 0.2% hits; AID 624263; active = well fitted activation curve with a large enough effect; inconclusive = small, poorly fitted or top-dose-only effect; inactive = flat fitted curve, though single readings scatter; cell line not stated here;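 note: potency is the fitted concentration of half-maximal effect; % of control where 0% means no effect; nearly all actives have a fitted effect of over 65% in size; a mitochondrial uncoupler was the plate control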
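Compound titrations (5 concentrations, 24 h) on a stable cell line; DMSO and CCCP controls. Endpoint: fixed-cell PINK1 immunofluorescence with mitochondrial, cell and nuclear markers, scanned by microplate cytometer.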
Six1-Eya2 blk: Six1/Eya2 interaction inhibition. AlphaScreen GST-Six1/His-Eya2 binding, biochemical; hits give low values; control for the full effect not named in the record. Q15475+O00167. 360,000 compounds, 0.56% hits. activity change, % (test concentration not listed). AID 651725; in the data active = activity change below about -65%; inconclusive = about -30% to -65%; inactive = above about -30%; note: % is set by controls: 0 for no effect and ±100 for the full control effect
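AlphaScreen with GST-Six1 and His-Eya2 (5X mix: 250 nM and 500 nM), glutathione donor and nickel acceptor beads; buffer 50 mM Tris pH 8.0, 300 mM NaCl, 1 mM TCEP; 1 h at 37 C in the dark.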
An asterisk follows results filed as active; ? = inconclusive; / = no result given; & = joins results of further samples; [ ] = another dose, or the depositor's remark.

Start of the data: the first 2 records, to show the layout:
SMILES	CtBP-E1A inh	TRPML1 ag	D2 agonist	D2 PAM	PINK1 expr mod	Six1-Eya2 blk
O=C1CN(C(=O)NCC(=O)N[C@H](Cc2ccccc2)C(=O)O)c2ccccc2N1	6	-0.1	0.9	-4	2.7%	6
CNc1cncc(-c2ccc(CN(C)C)cc2)n1	3	-0.8	-3.1	-7	-0.2%	-4

This part in full, from the first entry:
SMILES	CtBP-E1A inh	TRPML1 ag	D2 agonist	D2 PAM	PINK1 expr mod	Six1-Eya2 blk
O=C1CN(C(=O)NCC(=O)N[C@H](Cc2ccccc2)C(=O)O)c2ccccc2N1	6	-0.1	0.9	-4	2.7%	6
CNc1cncc(-c2ccc(CN(C)C)cc2)n1	3	-0.8	-3.1	-7	-0.2%	-4
C=C(C)Cn1c(=O)c2c(nc3n2CCN3c2cccc(Cl)c2C)n(C)c1=O	0	-1.1	-6.1	-5	4.6%	-2
CC(=O)NCCC(=O)Nc1ccc(C(N)=O)cc1	3	-0.5	-1.3	5	0.8%	8
Cc1c(Br)c([N+](=O)[O-])nn1CC(=O)N1CCc2ccccc2C1	-1	-0.7	-1.4	-10	1.7%	1
C#CCN(C[C@@H]1[C@@H](OC(=O)NCC2CCCCC2)[C@@H](OC(=O)NCC2CCCCC2)CN(C(=O)OC(C)C)N1C(=O)OC(C)C)S(=O)(=O)c1ccc(C)cc1	-24	1.0	-8.1	-2	1.8%	-3
CCCCn1nnnc1NCc1cccnc1	2	-0.3	-0.9	12	-1.9%	2
Nc1ncc(-c2ccc(F)cc2)nc1N1CCN(CCO)CC1	-13	0.2	6.0	-7	-0.2%	3
CCCOc1ccc(CNC(=S)Nc2ccccc2)cc1Cl	0	1.3	3.6	-11	?	-1
Cc1ccc(C(=O)NNC(=O)c2ccc(NS(=O)(=O)c3cccs3)cc2)s1	3	0.0	-2.0	-24	3.5%	8
O=C(O)C(C1CCCCC1)C1(O)CCCC1 (configuration not stated)	-4	0.6	-2.3	-24	0.3%	1
FC(F)(F)c1cccc(-c2ccc(-c3csnn3)o2)c1	-1	-0.2	-3.3	-10	2.1%	-1
CC(CNS(=O)(=O)c1ccccc1)Sc1ncccn1 (configuration not stated)	7	-1.0	-0.2	-3	0.8%	2
CC(C)C1C(=O)N(Cc2cn(CCC3OCCO3)nn2)CCS(=O)(=O)N1Cc1ccc(-c2ccccc2)cc1 (configuration not stated)	-10	/	-3.8	/	1.6%	0
CC(NS(=O)(=O)c1ccccc1)C(=O)NCCc1ccccn1 (configuration not stated)	2	0.1	-0.2	2	1.0%	4
O=C(NCCN1CCCCC1)Nc1ccc(F)cc1F	8	0.3	5.6	-11	0.3%	2
C=CCn1c(=O)/c(=C/c2ccsc2)s/c1=C(\C#N)C(=O)NCCN1CCOCC1	2	-0.4	-1.7	-5	7.9%	-1
CC(C)(C)c1ccc(N2C(=O)CC(c3ccccc3)C2=O)cc1 (configuration not stated)	-18	0.5	-3.1	-7	-0.1%	-1
CCCc1[nH]nc2c1C(c1ccc(OC)c(CSC3=NCCS3)c1)C(C#N)=C(N)O2 (configuration not stated)	-2	-0.3	-2.6	-14	0.4%	-3
CC1(C(=O)N(CC(=O)NC2CCCC2)C2CCCC2)CC(=O)N=C2C=CC=CN21 (configuration not stated)	-4	0.5	-2.7	-12	-2.3%[38.3 µM]	0
CCOC(=O)C1(NC(=O)CN2C(=O)c3ccccc3C2=O)CCCC1	0	-0.3	-2.4	-6	1.9%	2
CCOc1ccc(NS(=O)(=O)c2ccc3[nH]c(=O)oc3c2)cc1	2	-0.7	-2.3	-7	2.3%	1
CC1(C(=O)NS(=O)(=O)c2cccc(Cl)c2)CCN1C(=O)C1(c2ccc(Cl)cc2)CCC1 (configuration not stated)	-18	-0.7	1.4	2	3.5%	1
O=C(C1CCCN(Cc2cccs2)C1)N1CCCCCC1 (configuration not stated)	-1	1.4	-2.8	-32	-0.4%	-3
COc1ccccc1Nc1nnc(SCC(=O)Nc2cc(C)on2)s1	0	-0.6	-4.1	-33	2.8%	-3
CC(C)(C)C(=O)NC1CCN(S(=O)(=O)c2ccc(C(F)(F)F)cc2)CC1	11	0.2	-2.5	-2	0.9%[38.3 µM]	1
NS(=O)(=O)c1ccc(CCNC(=O)CSc2nc3ccccc3c(=O)n2CCC(=O)N2CCCCC2)cc1	-2	-0.6	-5.3	-1	0.8%	5
Clc1ccc2nc(-c3ccco3)c(Cc3ccsc3)n2c1	-10	0.2	-6.4	-8	0.2%	-21
CCCC(=O)Nc1nnc(-c2ccc(Cl)s2)o1	-14	0.0	-0.6	-3	2.0%	-20
Cc1ccc(-n2nnnc2C(=Cc2ccc(N(C)C)cc2)c2nnnn2-c2ccc(C)cc2)cc1	7&0	1.8	-1.6	-11	28%[38.3 µM]	-3
Fc1cccc(/C=N/N=C/c2cccc(F)c2)c1	12	0.6	-2.2	3	6.2%	-11
COc1ccc2oc(=O)cc(CN(C)Cc3ccccc3)c2c1	-1	2.1	4.5	0	0.5%	8
O=C(c1ccc(Br)cc1)c1sc(N2CCOCC2)nc1-c1ccccc1	9	-0.6	-3.7	6	-0.2%	1
Cc1cccc(-n2c(SCC(=O)N3CCC(C(=O)O)CC3)nc3ccccc3c2=O)c1C	-1	0.6	-3.1	2	0.9%	-12
COc1ccccc1-c1cc(C(=O)NCCc2ccccc2)no1	15	3.0&3.8	-1.2	-16	6.0%&12%	5
COC(=O)/C=C1/SC(=NC(=O)c2ccccc2)NC1=O	6	-0.7	-4.3	-2	0.7%	-28
COc1cccc(N=Cc2c[nH][nH]c2=O)c1	-13	-0.6	-1.3	-9	-0.5%	-12
O=C(COC(=O)c1c[nH]c2ccccc12)Nc1cccc(F)c1	-15	3.9	-2.7	-1	19%	-13
CC(C)CNC(=O)[C@H](Cc1ccccc1)NC(=O)c1cccs1	6	-0.7	1.4	-9	-1.5%	-2
COc1cccc(CNCc2cc(OC)cc(OC)c2)c1	-7	1.1	-3.3	-1	-0.9%	0
S=C(NC1CC2CCC1C2)N1CCN(c2cccc(Cl)c2)CC1 (configuration not stated)	-1	0.8	7.3	-13	7.1%	-4
CC(C)c1cc(C(N)=O)c(NC(=O)c2cccc(COc3ccc(Cl)cc3)c2)s1	4	0.0	-3.9	-15	3.7%	2
COc1ccc(NC(=O)Nc2cccc3ccccc23)cc1OC	-10	1.2	-5.7	-16	10%	-15
CCN(CC)C(=O)c1cn(CCC#N)nc1-c1ccc2ccccc2c1	3	0.5	-5.2	-5	1.1%	-4
O=C(Nc1ccccc1Cl)C1CCN(S(=O)(=O)c2cccc3nonc23)CC1	-2	-1.2	-5.0	-7	1.9%	0
COc1ccc(OC)c(N(CC(=O)Nc2cccnc2)S(=O)(=O)c2ccc(C)cc2)c1	9	-0.3	-1.0	-15	11%[38.3 µM]	-2
O=[N+]([O-])c1ccccc1C(=Nc1ccccc1)c1c(O)cc(O)cc1O	2	-0.6	-5.6	-18	6.7%	-4
CC1CC(C)CN(C(C)C(=O)Nc2cc(S(=O)(=O)N3CCCCC3)ccc2Cl)C1 (configuration not stated)	-12	-0.6	0.4	-2	3.9%	-9
O=C(Cn1c(=O)oc2cc(S(=O)(=O)N3CCCC3)ccc21)N1CCc2ccccc2C1	1	-0.3	-3.5	8	0.9%	2
C=CCOc1ccc(CNn2c(C)n[nH]c2=S)cc1OC	-1	-0.9	-1.0	5	-2.7%	6
O=C(NN=Cc1c(O)ccc2ccccc12)C1CC1	-69*	1.1	-9.2	-35	-2.8%	?
CSCc1ccc(C(=O)Nc2cccc(C)c2C)cc1	3	-0.4	3.6	6	-0.8%	-2
CCOc1ncccc1C(=O)OCC(=O)c1cc(C)n(Cc2ccco2)c1C	-16	0.1	-3.1	-7	0.9%	-19
O=C(Oc1nsnc1N1CCOCC1)N1CCCC1	5	-0.9	-4.1	-9	1.6%	-4
O=C(NC(=O)c1ccc(F)cc1F)Nc1ccc(Cl)cc1	8	0.9	0.0	-6	1.9%	6
CCCC(=O)c1c[nH]c(C(=O)NCc2ccco2)c1	-1	-0.1	-0.8	-4	3.5%	-8
O=C(CCN1C(=O)c2ccc(Br)cc2C1=O)NC1CCCCC1	2	-0.5	-0.9	8	0.2%	8
O=S(=O)(c1ccccc1)c1nc(-c2ccco2)oc1NCc1cccnc1	-9	2.0	4.1	-10	0.4%	0
COCCn1nc2cc(C(=O)NCc3cc(C(F)(F)F)cc(C(F)(F)F)c3)ccc2c1OC	8	-0.1	-1.8	-17	8.3%	4
CCCC(=O)c1cc2c(cc1NC(=O)c1cccs1)OCCO2	7	1.4	0.0	1	6.2%	5
More compounds follow:
SMILES	CtBP-E1A inh	TRPML1 ag	D2 agonist	D2 PAM	PINK1 expr mod	Six1-Eya2 blk
Cc1ccc(N2C(=O)N(CC(=O)c3cc(C)ccc3C)C(=O)C2C)cc1 (configuration not stated)	-9	3.6	0.0	-3	-0.7%	8
S=C(c1ccc(OCc2ccccc2)cc1)N1CCCC1	/	/	1.6	-16	1.3%	-7
COC(=O)c1ccc(C(c2c(C)n(C)n(-c3ccccc3)c2=O)c2c(C)n(C)n(-c3ccccc3)c2=O)cc1	15	0.6	-2.6	-2	0.6%	2
O=C(c1ccco1)N1CCN(C(=O)c2ccc(Br)o2)CC1	-1	-0.3	1.4	-1	2.5%	3
Cc1noc(C)c1C(=O)OCC(=O)NCc1ccccc1	-1	0.9	-3.4	-11	-3.2%	0
CC1(C)C(=O)Nc2ccccc2N1C(=O)COC(=O)Cc1c(F)cccc1Cl	-9	0.8	-7.1	-25	1.3%	-5
COCCN(CCOC)S(=O)(=O)c1ccc(C(=O)Nc2nnc(CSC)o2)cc1	-28	2.7	-1.7	-2	-0.7%	-12
Cc1ccc(S(=O)(=O)N2CCCCC2)cc1NC(=O)COC(=O)CNC(=O)c1cc(Cl)cc([N+](=O)[O-])c1	-1	1.8	8.2	?	1.7%	-8
COc1ccc(CCNC(=O)c2ccc(OCc3c(C)noc3C)c(OC)c2)cc1	0	1.2	-0.3	-22	7.2%	-5
CCN(CCNC(=O)c1ccc(CSc2nc3ccncc3[nH]2)cc1)c1ccccc1	1	-0.1	-0.3	-6	-0.4%	0
CCCNC(=O)C1(C)CCCN(C(=O)c2ccc(C)c(F)c2)C1 (configuration not stated)	0	-0.4	-6.6	2	1.5%	0
CC(C)(C)c1ccc(-c2nc(-c3ccncc3)no2)cc1	-5	-0.4	7.5	2	?	9
CCn1c(SCC(=O)O)nnc1-c1ccc2[nH]c(C)c(C)c2c1	-16	0.5	-6.0	-9	1.6%	-9
O=C1C=CC(=O)N1Cc1ccccc1	-13	3.3	-10	-32	0.1%	7
CC1CCC2(CC1)NC(=O)N(CC(=O)Nc1cccc(C#N)c1)C2=O (configuration not stated)	18	1.6	-0.3	-1	1.9%	1

2 compounds picked at random from those above:
SMILES	CtBP-E1A inh	TRPML1 ag	D2 agonist	D2 PAM	PINK1 expr mod	Six1-Eya2 blk
Cc1c(Br)c([N+](=O)[O-])nn1CC(=O)N1CCc2ccccc2C1	-1	-0.7	-1.4	-10	1.7%	1
O=C(Nc1ccccc1Cl)C1CCN(S(=O)(=O)c2cccc3nonc23)CC1	-2	-1.2	-5.0	-7	1.9%	0

Source: PubChem BioAssay

This is a random part of the collection, and some 1.3% of all compounds hit somewhere here.
